From PubChem
VDR inh – Inhibitors of the vitamin D receptor (VDR): qHTS. Vitamin D3 receptor (Homo sapiens), P11473. VDR-SRC2-3 peptide fluorescence polarization, 2 h. Potency, µM, inactives show max response, negative = inhibition, usual class: inhibitors. actives 0.93% (n = 400,000). AID 504847, 2011; active = well fitted inhibition curve with a large enough effect; inconclusive = small, poorly fitted or top-dose-only effect, or another doubt; inactive = no such curve, though single readings can be large or run the other way; note: series mostly up to about 120 µM
Target sequence (P11473 whole entry, looked up): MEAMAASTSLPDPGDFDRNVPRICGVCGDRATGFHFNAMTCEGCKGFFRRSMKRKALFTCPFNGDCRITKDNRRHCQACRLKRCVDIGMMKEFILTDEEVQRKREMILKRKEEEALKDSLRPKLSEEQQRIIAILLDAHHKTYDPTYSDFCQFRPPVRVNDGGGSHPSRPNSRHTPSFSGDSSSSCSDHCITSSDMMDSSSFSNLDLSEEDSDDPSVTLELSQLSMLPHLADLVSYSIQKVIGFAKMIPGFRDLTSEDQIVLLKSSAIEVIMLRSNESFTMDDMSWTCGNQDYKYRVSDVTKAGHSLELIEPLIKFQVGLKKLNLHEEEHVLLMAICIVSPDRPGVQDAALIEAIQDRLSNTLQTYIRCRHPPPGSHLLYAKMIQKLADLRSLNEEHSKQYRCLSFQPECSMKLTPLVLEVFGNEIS
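Compounds are added to VDR with labelled SRC2-3 coactivator peptide and held 2 h at room temperature. Inhibition of the VDR–peptide interaction is then read as a change in fluorescence polarization.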
Numbers without * were called inactive; ? = inconclusive. % is set by controls: 0 for no effect and ±100 for the full control effect; potency is the fitted concentration of half-maximal effect. Some of the compounds tested; rates above refer to the full screens.

SMILES	VDR inh
Cc1ccccc1N(CC(=O)NCCSc1ccccn1)S(=O)(=O)c1ccccc1	1.2%
CCN(CC)C(=O)C1CCCN(c2ncnc3c2cnn3-c2cccc(C)c2)C1 (centres undefined)	6.3%
COc1cc(/C=N/N2CCCCC2)cc(OC)c1O	18.6%
C=CCOc1ccc(/C=C/C(=O)OCC(=O)NCc2cccs2)cc1	8.0%
COc1ccc(/C=N/NC(=O)c2cc(-c3ccccc3)nc3ccccc23)cc1O	-1.5%
c1ccc(-n2nnnc2SCc2cccc(CSc3nnnn3-c3ccccc3)n2)cc1	18.2%
Cc1csc(C(C)N(C)C(=O)c2ccc(OC3CCN(Cc4ccccn4)CC3)cc2)n1 (centres undefined)	-9.2%
CCOc1ccc(CCNC(=O)CN(C)S(=O)(=O)c2ccc3c(c2)CCC(=O)N3)cc1OCC	5.4%
COc1ccc(CNCCC(c2ccccc2)C2CCOC(C)(C)C2)cc1 (centres undefined)	-1.8%
CC1CCCN(CCOCCOc2ccc(Br)cc2Cl)C1 (centres undefined)	-21.8%
Cc1ccc(C(=O)NCCC(=O)N2CCCC2)cc1	-11.2%
CCOC(=O)c1ccc(NC(=O)Cn2nnc(-c3ccc(C(F)(F)F)cc3)n2)cc1	-15.2%
CCc1nnc(NC(=O)c2ccc(COc3ccc(C)cc3)o2)s1	-1.5%
COc1ccc(NC(=O)C2CCCN(S(C)(=O)=O)C2)c(OC)c1 (centres undefined)	-8.4%
Cc1cc(=O)[nH]c2sc(C(=O)N3c4ccccc4CC3C)c(N)c12 (centres undefined)	-16.7%
COc1ccccc1-c1noc(-c2ccc(NCc3ccccc3)c([N+](=O)[O-])c2)n1	-0.4%
CCOc1ccc2[nH]c(=O)c(C(c3nnnn3Cc3ccco3)N3CCC(C)CC3)cc2c1 (centres undefined)	-7.7%
Cc1cc(C)cc(OCC(=O)O/N=C(\N)c2ccccc2Cl)c1	-5.7%
Cc1cccc(Cn2c(Sc3nc(C)cs3)nc3c2c(=O)[nH]c(=O)n3C)c1	-15.9%
CN(C)c1ccc(/C=C(/NC(=O)c2ccccc2)C(=O)NCCCn2ccnc2)cc1	6.0%
O=c1[nH]c(-[n+]2ccccc2)c(/C=N/N=C(\[O-])c2ccccc2)s1	-13.1%
CCOc1ccccc1N1CCN(C(=O)c2cc(S(=O)(=O)N3CCCCC3)ccc2C)CC1	-2.0%
Cc1ccc(NC(=S)N(CCCN2CCCC2)Cc2cccn2Cc2ccc(Cl)cc2)cc1Cl	-12.2%
COc1ccc(-n2cc(C(=O)NCCc3ccc(C)cc3)c3ccccc3c2=O)cc1	-7.5%
O=C(OCc1cc(Cl)ccc1OC(F)F)c1cncc(Br)c1	-4.2%
COc1ccc(-c2nc3sc(CCNC(=O)C(=O)Nc4cccc(NC(C)=O)c4)c(C)n3n2)cc1	3.0%
CCOC(=O)CNC(=O)CC(c1cc(OC)c(OC)c(OC)c1)N1Cc2ccccc2C1=O (centres undefined)	17.0%
Cc1cc(=O)n2[nH]c(-c3ccc(F)cc3)cc2n1	-7.1%
CC1(C)C(C#N)=C(N)OC2=C1C(=O)CCC2	2.1%
Clc1ccc(Nc2c(-c3cccs3)nc3ccc(Cl)cn23)cc1	-4.7%
Cc1nnc2ccc(-c3cccc(NC(=O)c4ccc(Cl)nc4)c3)nn12	5.4%
C#CCOCCOCCOCCNc1nc(N2CCN(C(=O)[C@H](Cc3cc4ccccc4[nH]3)n3cc([C@@H](N)C(C)CC)nn3)CC2)nc(N2CCN(C(=O)[C@H](CCCCN)n3cc([C@@H](N)CC(C)C)nn3)CC2)n1 (some centres undefined)	-10.7%
COc1ccc(-c2cc(C(=O)N3CCOCC3)no2)cc1	-22.0%
COc1cc(C=NNC(=O)c2ccccc2NS(=O)(=O)c2cccs2)cc(OC)c1O	1.7%
Cc1ccnc(NS(=O)(=O)c2ccc(NC(=O)CCOc3ccccc3)cc2)n1	17.6%
COc1ccc(OC)c(C(=O)COC(=O)COc2ccccc2)c1	?
CCOC(=O)c1nnn(-c2nonc2N)c1CNc1ccccc1	14.0%
Cn1c(=O)c2sccc2n2c(CCCC(=O)N3CCCCC3)nnc12	?
O=C(Cc1ccccc1)NCCc1ccc(Cl)cc1Cl	-8.8%
COc1cccc(/C=C2\N=C(c3c(-c4ccccc4)noc3C)OC2=O)c1	-27.4%
COc1ccc2[nH]cc(CCn3ccc(=O)c(C)c3C)c2c1	6.4%
Cc1ccc(NC(=O)CN(C)c2ccc(S(=O)(=O)N3CCCC3)cn2)cc1	2.8%
O=C(COc1ccccc1Cl)NNC(=O)C1CCCO1 (centres undefined)	-1.4%
Cc1[nH]c2ccc(C(=O)NCCCN3CCCCCC3)cc2c1C	8.8%
Cc1c(/C=C/C(=O)c2ccccc2)cnn1C	-12.7%
N#Cc1cccc(NC(=O)N2CCC3(CC2)CCN(C(=O)c2cnccn2)CC3)c1	12.9%
C(=NOCc1ccccc1)c1ccncc1	5.4%
CCOc1ccccc1OCCCC(=O)N1CCN(S(=O)(=O)c2ccc(Cl)cc2)CC1	-4.8%
Cc1ccc(OCC(O)CNS(=O)(=O)c2ccccc2C(=O)O)cc1 (centres undefined)	9.4%
COc1ccc(/C=N/NC(=O)c2ccoc2C)cc1OC	-2.9%

The last three compounds of the section above open the next one.
SMILES	VDR inh
CCOc1ccccc1OCCCC(=O)N1CCN(S(=O)(=O)c2ccc(Cl)cc2)CC1	-4.8%
Cc1ccc(OCC(O)CNS(=O)(=O)c2ccccc2C(=O)O)cc1 (centres undefined)	9.4%
COc1ccc(/C=N/NC(=O)c2ccoc2C)cc1OC	-2.9%
O=P(c1ccccc1)(c1ccccc1)c1ccc(O)cc1	-0.5%
CCOC(=O)CN(Cc1sccc1C)C(=O)Nc1cccc(OC)c1	-5.6%
O=C(CCS(=O)(=O)c1ccccc1)Nc1nc(-c2ccccn2)cs1	-10.5%
N#Cc1cccc(NC(=O)Cn2cnc(S(=O)(=O)N3CCCCC3)c2)c1	5.0%
O=C(c1csnn1)N1CCC2(CCCN(Cc3cc(C(F)(F)F)cc(C(F)(F)F)c3)C2)CC1	-5.1%
CC(=O)c1ccc(S(=O)(=O)NCCC(=O)NC2CCN(Cc3ccccc3)CC2)cc1	0.2%
CSc1nn(Cc2ccccc2C)c(NC(C)=O)c1S(=O)(=O)c1ccc(C)cc1	12.2%
Cc1nn(Cc2ccc(Cl)cc2Cl)c(C)c1NC(=O)Cn1nc([N+](=O)[O-])c(Cl)c1C	7.7%
CSc1nsc(/C=C/Nc2ccc(F)cc2F)c1C#N	-25.8%
CN(C)C(CNC(=O)c1cc(S(=O)(=O)N(C)c2ccccc2)ccc1Cl)c1cccs1 (centres undefined)	-4.4%
CCOc1ccccc1N1CCN(CC(=O)NCCc2ccc(S(N)(=O)=O)cc2)CC1	19.5%
CCOC(=O)C1CCC(CN(Cc2ccccc2)S(=O)(=O)c2ccc(Cl)cc2)CC1 (centres undefined)	0.7%
COc1ccc(NC(=O)CC2C(=O)N(c3cccc(OC)c3)C(=O)N2CCC2=CCCCC2)cc1 (centres undefined)	-10.3%
COc1cccc(OCC(=O)Nc2cc(NC(=O)COc3cccc(OC)c3)cc(C(=O)O)c2)c1	-14.7%
CCCn1nc2cc(C(=O)NC3CCc4ccccc43)ccc2c1OCC (centres undefined)	-17.2%
O=C(Nc1nc(-c2ccc(Cl)s2)cs1)c1cccs1	4.2%
CC1CC(C)CN(C(=O)CCNC(=O)c2ccccc2Cl)C1 (centres undefined)	2.0%
COc1ccc(Oc2ncc3ncc(=O)n(Cc4cccc(OC)c4)c3n2)cc1	3.7%
O=C(Nc1ccccc1-c1ccccc1)NC1CC2CCCC(C1)N2Cc1ccc(F)cc1 (centres undefined)	25.6%
CCOC(=O)Cn1c(=NC(=O)CN2C(=O)CCC2=O)sc2cc(S(N)(=O)=O)ccc21	-6.9%

2 consecutive records already listed, for reference:
SMILES	VDR inh
CC1CC(C)CN(C(=O)CCNC(=O)c2ccccc2Cl)C1 (centres undefined)	2.0%
COc1ccc(Oc2ncc3ncc(=O)n(Cc4cccc(OC)c4)c3n2)cc1	3.7%

(further entries)
SMILES	VDR inh
CCCc1nnc(SCc2cc(=O)c3c(C)cc(C)cc3[nH]2)n1C	8.2%
Cc1ccc2c(ccn3cc4c(c(=O)n(C)c(=O)n4C)c23)c1	-3.2%
CC1=C(C(=O)Nc2cccnc2)C(c2cccnc2)n2ncnc2N1 (centres undefined)	-8.1%
COc1ccc(C2Nc3ccccc3C(=O)N2Cc2ccco2)cc1COc1ccc(NC(C)=O)cc1 (centres undefined)	3.0%
CCOc1ccc(NC(=O)c2ccc(CNc3c(N4CCCC4)c(=O)c3=O)cc2)cc1	-13.7%
COc1ccc(NC(=O)CC2Oc3ccc(C)cc3NC2=O)cc1Cl (centres undefined)	-15.8%
O=C(CN(C(=O)C1CSC(=O)C1)c1cccc(F)c1)NC1CCCC1 (centres undefined)	-13.5%
CCC(C)NC(=O)NC(=O)N(C1CCCCC1)S(C)(=O)=O (centres undefined)	7.2%
COc1ccc(OC)c(C=NNC(=O)c2ccccc2NS(=O)(=O)c2cccs2)c1	14.1%
CCn1cc(C(=O)N2CCN(c3cc(C)ccc3C)CC2)c(=O)c2cc(S(=O)(=O)N3CCCCC3)ccc21	-9.5%
COc1cc2ccccc2cc1C(=O)N1CCc2ccccc21	-10.8%
Cn1nccc1C(=O)N1CCN(C23CC4CC(CC(C4)C2)C3)CC1	2.4%
CCOC(=O)C(N)CSC1CC(=O)N(c2ccc(C(=O)OC)cc2)C1=O (centres undefined)	3.5%
Cc1ccc(/C=C/c2onc(C)c2S(=O)(=O)N2CCC(C(=O)N3CC(C)Oc4ccccc43)CC2)cc1 (centres undefined)	8.5%
Cc1ccc(C(=O)NCC(=O)OCc2csc(-c3ccccc3)n2)cc1	-5.4%
NC1=NC[C@H](c2ccccc2)N1CCCCC1CCCCC1	12.8%
Cc1ccc(NC(=S)N2CCN(c3nccc(C(F)(F)F)n3)CC2)c(C)c1	0.2%
COc1cccc(NS(=O)(=O)c2csc(C(N)=O)c2)c1	3.1%
O=c1c(-c2n[nH]c(=S)n2-c2ccccc2)cccn1Cc1cccc(Cl)c1	-3.8%
CC[C@@H]1C=C(C(=O)O)[C@H](c2ccc(Br)cc2)N1S(=O)(=O)c1ccc(C)cc1	-23.2%
CCc1ccc(Nc2ccc(C(=O)O)cc2[N+](=O)[O-])cc1	-7.0%
O=C(Nc1nccs1)c1ccc(N2C(=O)C3CCCCC3C2=O)cc1 (centres undefined)	-2.3%
CCN(C(=O)Cn1nc(Cc2ccncc2)c2ccccc2c1=O)c1cccc(Cl)c1	-1.1%
CC(C)(C)c1cc(CN(CCO)CCO)cc(C(C)(C)C)c1O	?
Cc1oc(-c2ccc(Cl)cc2)nc1CS(=O)CC(=O)N1CCN(c2cccc(C(F)(F)F)c2)CC1 (centres undefined)	14.0%
CNC(=O)Cn1ncc2c(C)n(Cc3ccc(C)cc3)c(C)c2c1=O	-2.5%
COc1ccccc1N(C)S(=O)(=O)c1ccc(C(=O)OCC(=O)NCc2ccco2)cc1	-4.2%
COc1cc2c(cc1OC)/C(=C/C(=O)c1ccc(NC(C)=O)cc1)NCC2	-19.6%
Cc1ccc(-n2ncc3c(N4CCC5(CC4)OCCO5)ncnc32)c(C)c1	-3.2%
CNC(=O)c1nnsc1S(=O)(=O)c1ccc(Cl)cc1	10µM*
CC1CN(C(C)C(=O)NC(c2ccccc2)c2ccccc2)CC(C)O1 (centres undefined)	9.0%
C[N+]1(CC(=O)Nc2ccccc2Cl)CCN(C(=O)c2cccs2)CC1	1.9%
Cc1cccc(NC(=O)c2cnc3sc(N4CCCC4)nn3c2=O)c1C	6.3%
CCn1cc(CN2CCC(n3nccc3NC(=O)c3ccccc3C)CC2)cn1	-4.9%
Cc1nn(-c2ccccc2)c(Cl)c1/C=N/Nc1nc2ccccc2[nH]1	-2.1%
O=C(CCNS(=O)(=O)c1ccccc1)N1CCC(Cc2ccccc2)CC1	-6.3%
CCOC(=O)N1CCN(Cc2nc3c(c(=O)[nH]c(=O)n3C)n2Cc2ccccc2C)CC1	4.4%
Cc1ccc(Cl)cc1NC(=O)Nc1cccc(OCc2cc(=O)n3ccccc3n2)c1	8.2%
Cc1cc(C)nc(-n2nc(C)c3c2N(C)C(=O)CC3c2ccc(Cl)cc2)n1 (centres undefined)	-4.4%
COc1ccccc1NC(=O)c1ccc(NC(=O)CSc2nc(N)cc(=O)[nH]2)cc1	6.0%

Grouped by structure: the compounds so far containing a COOH group (four)
SMILES	VDR inh
Cc1ccc(OCC(O)CNS(=O)(=O)c2ccccc2C(=O)O)cc1 (centres undefined)	9.4%
COc1cccc(OCC(=O)Nc2cc(NC(=O)COc3cccc(OC)c3)cc(C(=O)O)c2)c1	-14.7%
CC[C@@H]1C=C(C(=O)O)[C@H](c2ccc(Br)cc2)N1S(=O)(=O)c1ccc(C)cc1	-23.2%
CCc1ccc(Nc2ccc(C(=O)O)cc2[N+](=O)[O-])cc1	-7.0%

Remaining list, next part
SMILES	VDR inh
Cc1ccc2nsnc2c1N	1.2%
Cc1cccc(NC(=O)c2ccc(COc3ccccc3[N+](=O)[O-])o2)n1	-1.7%
COc1ccccc1CNC(=O)COC(=O)c1ccccn1	-3.5%
CCc1ccccc1NC(=O)CN1C(=O)c2ccccc2Sc2ncccc21	3.2%
O=C(CNC(=O)c1ccc(Br)cc1)NCCc1nc2ccccc2[nH]1	-75.8%
COc1ccccc1N(C(=O)CN1C(=O)c2ccccc2S1(=O)=O)C(C(=O)NCC1CCCO1)c1ccc(F)cc1 (centres undefined)	-2.9%
O=S(=O)(c1ccc(S(=O)(=O)n2cnc3ccccc32)cc1)N1CCCCCC1	-7.0%
CC(=O)Oc1cc2c(c(C)c1OC(C)=O)CC=C1[C@]3(C)CC[C@]4(C)CC[C@@](C)(C(=O)O)CC4[C@]3(C)CC[C@]12C (some centres undefined)	-10.2%
